MT1-MMP reporter = MT1-MMP gene expression reporter suppression – cell-based, luciferase reporter, luminescence (AID 618); 87,000 tested, 0.62% active; MT1-MMP promoter luciferase reporter cells, luminescence; calls from a first round at 10 µM; hits with a dose series show EC50 in µM;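 active = over half of the reporter light lost at 10 µM or EC50 under 50 µM; inactive = the rest and hits that failed the dose series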;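 note: actives suppress MT1-MMP promoter-driven transcription so potencies describe inhibitors; HT1080 fibrosarcoma cells; overnight exposure; toxic or luciferase-blocking compounds were not removed from the actives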
WNV protease inh = inhibitors of West Nile virus NS2B-NS3 protease | P06935 | WNV NS2B-NS3 protease, fluorogenic substrate Ex360/Em465; hits give low values | z-score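 (tested at a level between 10 and 100 µM)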 | 65,000 tested, 0.18% active | AID 577;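 active = z-score at -3 or under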;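 note: score is relative to mean and spread of the compound wells of a plate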
Target sequence (P06935 1371-1501 limits assumed): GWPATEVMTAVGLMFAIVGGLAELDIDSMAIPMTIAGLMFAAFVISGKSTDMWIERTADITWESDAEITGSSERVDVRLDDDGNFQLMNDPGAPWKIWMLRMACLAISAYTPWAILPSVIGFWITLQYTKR
Target sequence (P06935 1502-1679 limits assumed): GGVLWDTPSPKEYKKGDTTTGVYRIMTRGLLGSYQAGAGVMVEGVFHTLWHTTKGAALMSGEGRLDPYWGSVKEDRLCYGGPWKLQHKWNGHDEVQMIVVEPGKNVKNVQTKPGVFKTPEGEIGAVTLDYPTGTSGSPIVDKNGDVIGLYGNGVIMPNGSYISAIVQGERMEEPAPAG
Active calls of the source: *; i = inactive; / = no result given. Not all compounds are listed, so the mix of outcomes need not match the whole.

> COc1cc(C)c(CN2CCN(c3ccccc3)CC2)cc1C
- MT1-MMP reporter = /
- WNV protease inh = -0.76

> COCCOC(=O)C1=C(N)OC(C)=C(C(=O)OC)C12C(=O)Nc1ccccc12 (stereo not given)
- MT1-MMP reporter = /
- WNV protease inh = 1.9

> CN1CCN(C(=O)COc2ccc(C(C)(C)C)cc2Br)CC1
- MT1-MMP reporter = /
- WNV protease inh = 0.0088

> Cc1c2ccncc2c(C)c2c1[nH]c1ccccc12
- MT1-MMP reporter = /
- WNV protease inh = 0.82

> O=C(C(Cc1ccccc1)NS(=O)(=O)c1ccc(F)cc1)N1CCC2(CC1)OCCO2 (stereo not given)
- MT1-MMP reporter = /
- WNV protease inh = 0.25

> CC(C)(C)OC(=O)c1c(N)n(Cc2ccco2)c2nc3ccccc3nc12
- MT1-MMP reporter = /
- WNV protease inh = 2.4

> CC(=NCCN1CCOCC1)c1c(O)n(-c2ccccc2C)c(=O)[nH]c1=O
- MT1-MMP reporter = /
- WNV protease inh = -0.37

> O=C(O)CP(=O)(O)c1ccc(Cl)cc1
- MT1-MMP reporter = /
- WNV protease inh = -0.09

> CC(C)CC12CN3CCN(CC(C3)C1O)C2 (stereo not given)
- MT1-MMP reporter = /
- WNV protease inh = -1

> Cc1oc(-c2cccs2)nc1CSCC(=O)N1CCC2(CC1)OCCO2
- MT1-MMP reporter = i
- WNV protease inh = /

> O=C(c1cccn2c(=O)c3ccc(Cl)cc3nc12)N1CCC2(CC1)OCCO2
- MT1-MMP reporter = i
- WNV protease inh = /

> O=P(N[C@@H](c1ccccc1)[C@@H]1C[C@H]1CO)(c1ccccc1)c1ccccc1
- MT1-MMP reporter = i
- WNV protease inh = /

> CCCC/C(C)=C/[C@@H](NP(=O)(c1ccccc1)c1ccccc1)c1ccccc1
- MT1-MMP reporter = i
- WNV protease inh = /

> C=CCN1C(=O)c2ccccc2Sc2ccc(C(=O)N3CCC4(CC3)OCCO4)cc21
- MT1-MMP reporter = i
- WNV protease inh = /

> COC(=O)[C@H]1C[C@H]2CC[C@H](O)C[C@H]2N1CC1CC1
- MT1-MMP reporter = i
- WNV protease inh = /

An excerpt of these results, with values under each structure.
Each structure is followed by: MT1-MMP reporter | WNV protease inh
- COCCOC(=O)C1=C(N)OC(C)=C(C(=O)OC)C12C(=O)Nc1ccccc12 (stereo not given)
  / | 1.9
- CN1CCN(C(=O)COc2ccc(C(C)(C)C)cc2Br)CC1
  / | 0.0088
- Cc1c2ccncc2c(C)c2c1[nH]c1ccccc12
  / | 0.82
- O=C(C(Cc1ccccc1)NS(=O)(=O)c1ccc(F)cc1)N1CCC2(CC1)OCCO2 (stereo not given)
  / | 0.25

Single records, as listed above. Values in the order: MT1-MMP reporter	WNV protease inh
CC(=NCCN1CCOCC1)c1c(O)n(-c2ccccc2C)c(=O)[nH]c1=O is listed as /	-0.37
C=CCN1C(=O)c2ccccc2Sc2ccc(C(=O)N3CCC4(CC3)OCCO4)cc21 is listed as i	/
O=P(N[C@@H](c1ccccc1)[C@@H]1C[C@H]1CO)(c1ccccc1)c1ccccc1 is listed as i	/

Other compounds.
> Cc1nc2nc(SCC(=O)N3CCC4(CC3)OCCO4)nn2c(C)c1Cc1ccccc1
- MT1-MMP reporter = i
- WNV protease inh = /

> O=C(CSC1c2ccccc2-c2ccccc21)N/N=C/c1ccccc1
- MT1-MMP reporter = i
- WNV protease inh = /

> O=C(Nc1ccccc1)Oc1ccccc1
- MT1-MMP reporter = i
- WNV protease inh = /

> CCCc1cc2c(n1Cc1ccco1)C(C)C1CN(C(=O)c3ccccc3)C(C)(C(=O)OC)C21 (stereo not given)
- MT1-MMP reporter = i
- WNV protease inh = /

> O=C(N/N=C1/CN2CCC1CC2)c1cc2ccccc2cc1O
- MT1-MMP reporter = i
- WNV protease inh = /

> CN(C)C(=O)Oc1cccc2c(OC(=O)N(C)C)cccc12
- MT1-MMP reporter = i
- WNV protease inh = /

> CCCC/C=C/[C@@H](NP(=O)(c1ccccc1)c1ccccc1)c1ccccc1OC
- MT1-MMP reporter = i
- WNV protease inh = /

Compound activity as filed in PubChem.
